# Yeast UUG start = modulators of yeast start codon fidelity, primary screen, whole organism, S. cerevisiae, single point, plate reader; S. cerevisiae UUG-firefly luciferase reporter, luminescence/redox ratio; activity score, % at 18.7 µM; hit rate 0.13% among 350,000; AID 602363, 2012;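 active means replicate mean at a twofold rise or more, about +100% in these data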;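 further: firefly luciferase made from a UUG start codon reports start codon fidelity; reporter light over untreated wells divided by growth signal over untreated wells; some hits fall short of that in this replicate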
# HIV Env fusion = inhibitors of HIV-1 Env-driven cell-cell fusion, primary screen, HeLa-JRFL effector, CEM21 target cells, luciferase. AID 651610, 2012. inhibition, % at 12.3 µM. hit rate 1.1% among 360,000;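 active means mean replicate inhibition score of at least 50 and every replicate individually at or above 50; inconclusive means only one of the two criteria met; inactive means mean below 50 and not all replicates reaching 50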;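 further: 0% = plate neutral controls and 100% = maraviroc near 300 nM; one replicate is shown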
# Numbers without * were called inactive; ? = inconclusive; [ ] = another dose, or the depositor's remark.
# Each structure is followed by: HIV Env fusion, Yeast UUG start
C[C@H](NC(=O)C[C@H]1C=C[C@@H](NC(=O)C2CCC2)[C@@H](CO)O1)c1ccccc1
    15[16.7 µM], -4
Cc1ccc(S(=O)(=O)N(C)C[C@H]2Oc3ccc(NC(=O)Cc4cn(C)c5ccccc45)cc3CC(=O)N([C@@H](C)CO)C[C@H]2C)cc1
    16[16.7 µM], -11
C[C@H](CO)N1C[C@H](C)[C@H](CN(C)Cc2ccncc2)Oc2cc(C#CC3CC3)ccc2S1(=O)=O
    -9[16.7 µM], -4
C[C@@H]1CCCCO[C@H](CN(C)C(=O)Nc2ccc3c(c2)OCO3)[C@H](C)CN([C@@H](C)CO)C(=O)c2cc(NC(=O)NC3CCCCC3)ccc2O1
    2[16.7 µM], -7
C[C@H](CO)N1C[C@H](C)[C@H](CN(C)C(=O)c2ccccc2)OCCCC[C@H](C)Oc2ccc(NC(=O)Nc3ccc4c(c3)OCO4)cc2C1=O
    61*[16.7 µM], 1
C[C@H]1CN([C@@H](C)CO)C(=O)c2cc(Br)cnc2O[C@@H]1CN(C)S(=O)(=O)c1ccc(F)cc1
    48[16.7 µM], 24
C[C@H]1CN([C@@H](C)CO)S(=O)(=O)c2ccc(C#CC(C)(C)O)cc2O[C@H]1CN(C)C(=O)C1CCC1
    -2[16.7 µM], 15
Cc1ccc(S(=O)(=O)N[C@@H]2C=C[C@@H](CC(=O)NCCCN(C)C)O[C@H]2CO)cc1
    -3[16.7 µM], -6
COc1ccc(NC(=O)N(C)C[C@@H]2Oc3c(cccc3N(C)C)C(=O)N([C@H](C)CO)C[C@@H]2C)cc1
    8[16.7 µM], 2
COc1ccc(NC(=O)N(C)C[C@H]2OCCCC[C@H](C)Oc3ccc(NC(=O)Nc4ccc(C(F)(F)F)cc4)cc3C(=O)N([C@H](C)CO)C[C@@H]2C)cc1
    6[16.7 µM], -15
C[C@@H]1CN([C@@H](C)CO)C(=O)c2cc(-c3cccc(F)c3)cnc2O[C@@H]1CN(C)C(=O)c1ccccn1
    18[16.7 µM], 3
C[C@@H]1CN([C@@H](C)CO)C(=O)c2cccc(NC(=O)Nc3ccc(F)cc3)c2O[C@@H]1CN(C)C(=O)Nc1ccccc1
    -4[16.7 µM], 12
Cn1cnc(CCNC(=O)C[C@H]2CC[C@H]3[C@@H](COC[C@H](O)CN3C(=O)C3CCCC3)O2)c1
    3[16.7 µM], 2
O=C(C[C@@H]1C[C@@H]2c3cc(NC(=O)CC4CC4)ccc3O[C@@H]2[C@H](CO)O1)NCc1ccc2c(c1)OCO2
    -3[16.7 µM], -5
Cn1cnc(S(=O)(=O)N[C@@H]2C=C[C@H](CC(=O)NCC3CC3)O[C@@H]2CO)c1
    8[16.7 µM], -14
COc1ccc(NC(=O)N(C)C[C@H]2OCCCC[C@H](C)Oc3ccc(NS(=O)(=O)c4ccc(C)cc4)cc3C(=O)N([C@H](C)CO)C[C@@H]2C)cc1
    -114[16.7 µM], -5
COc1cccc(S(=O)(=O)N[C@@H]2CC[C@@H](CCn3cc(-c4ccccn4)nn3)O[C@H]2CO)c1
    -24[16.7 µM], -28
Cc1ccc(S(=O)(=O)Nc2ccc3c(c2)C(=O)N([C@@H](C)CO)C[C@@H](C)[C@H](CN(C)C(=O)CCC(F)(F)F)OCCCC[C@H](C)O3)cc1
    -45[16.7 µM], -2
C[C@@H]1CCCCO[C@@H](CN(C)C(=O)C2CCCCC2)[C@H](C)CN([C@H](C)CO)C(=O)c2cc(N(C)C)ccc2O1
    -33[16.7 µM], -3
O=C(C[C@@H]1C=C[C@H](NS(=O)(=O)c2ccc(F)cc2)[C@@H](CO)O1)NCCN1CCCCC1
    -43[16.7 µM], -7
N#C[C@@H]1[C@@H](c2ccc(-c3cncnc3)cc2)[C@H](CO)N1C(=O)C1CCCC1
    3[16.7 µM], -3
C[C@H]1CN([C@@H](C)CO)C(=O)c2cc(NC(=O)Nc3ccccc3)ccc2O[C@@H]1CN(C)C(=O)Nc1cccc2ccccc12
    -12[16.7 µM], 21
C[C@H]1CCCCO[C@@H](CN(C)C(=O)Nc2ccc(F)cc2)[C@@H](C)CN([C@@H](C)CO)C(=O)c2cc(NS(=O)(=O)c3cccs3)ccc2O1
    24[16.7 µM], -17
COCC#Cc1cnc2c(c1)C(=O)N([C@@H](C)CO)C[C@H](C)[C@@H](CN(C)C(=O)Nc1c(C)noc1C)O2
    4[16.7 µM], 14
C[C@@H]1CN([C@H](C)CO)S(=O)(=O)c2ccc(/C=C/c3ccccc3)cc2O[C@@H]1CN(C)C(=O)c1ccccc1
    1[16.7 µM], -1
N#C[C@H]1[C@@H](c2ccc(C3=CCCCC3)cc2)[C@@H](CO)N1C(=O)NC1CCCCC1
    0[16.7 µM], -9
Cc1ccc(S(=O)(=O)Nc2ccc3c(c2)C(=O)N([C@@H](C)CO)C[C@H](C)[C@@H](CN(C)Cc2ccc(C(F)(F)F)cc2)OCCCC[C@@H](C)O3)cc1
    -50[16.7 µM], 6
COc1ccc(S(=O)(=O)Nc2ccc3c(c2)C(=O)N([C@@H](C)CO)C[C@@H](C)[C@@H](CN(C)C(=O)CCCN(C)C)OCCCC[C@@H](C)O3)cc1
    19[16.7 µM], 3
Cc1ccccc1-c1ccc2c(c1)O[C@H](CN(C)Cc1ccncc1)[C@@H](C)CN([C@H](C)CO)S2(=O)=O
    31[16.7 µM], -9
C[C@@H]1CN([C@@H](C)CO)C(=O)Cc2cc(NC(=O)Nc3cccc4ccccc34)ccc2O[C@H]1CN(C)C(=O)Nc1ccc(C(F)(F)F)cc1
    4[16.7 µM], 1
C[C@@H]1CCCCO[C@@H](CN(C)S(=O)(=O)c2cccs2)[C@H](C)CN([C@H](C)CO)C(=O)c2cc(NC(=O)Cc3ccccc3)ccc2O1
    -36[16.7 µM], -1
O=C(C[C@@H]1C=C[C@H](NC(=O)C2CCC2)[C@@H](CO)O1)NCC1CC1
    12[16.7 µM], -3
C[C@@H]1CN([C@@H](C)CO)C(=O)Cc2cc(NC(=O)Nc3ccc4c(c3)OCO4)ccc2O[C@H]1CN(C)Cc1ccc(C(F)(F)F)cc1
    ?, 0
COc1ccc(S(=O)(=O)Nc2ccc3c(c2)C(=O)N([C@@H](C)CO)C[C@@H](C)[C@@H](CN(C)C(=O)Nc2c(C)noc2C)OCCCC[C@H](C)O3)cc1
    26[16.7 µM], 13
C[C@@H]1CN([C@H](C)CO)C(=O)c2cccc(NC(=O)C3CCOCC3)c2O[C@H]1CN(C)S(C)(=O)=O
    11[16.7 µM], -7
Cc1ccc(S(=O)(=O)Nc2cccc3c2O[C@H](CN(C)S(=O)(=O)c2ccc(C)cc2)[C@H](C)CN([C@H](C)CO)C3=O)cc1
    4[16.7 µM], -1
C[C@@H]1CN([C@H](C)CO)C(=O)c2cc(NC(=O)Nc3cccc4ccccc34)ccc2O[C@@H](C)CCCCO[C@@H]1CN(C)C(=O)c1ccccc1
    -3[16.7 µM], 10
COc1ccc(CN2C[C@H](C)[C@@H](OC)CN(C)C(=O)c3ccc(NC(=O)c4nc5ccccc5s4)cc3OC[C@H]2C)cc1
    16[16.7 µM], 8
Cc1ccc(S(=O)(=O)N(C)C[C@H]2OCCCC[C@@H](C)Oc3ccc(NC(=O)CCC(F)(F)F)cc3C(=O)N([C@H](C)CO)C[C@H]2C)cc1
    1[16.7 µM], 12
C[C@@H]1CN([C@@H](C)CO)C(=O)c2cc(NC(=O)C3CCCCC3)ccc2O[C@@H](C)CCCCO[C@@H]1CN(C)Cc1ccc(C(F)(F)F)cc1
    -2[16.7 µM], 8

# Some values from above:
# Value for N#C[C@@H]1[C@@H](c2ccc(-c3cncnc3)cc2)[C@H](CO)N1C(=O)C1CCCC1 in Yeast UUG start: -3
# Value for COc1ccc(S(=O)(=O)Nc2ccc3c(c2)C(=O)N([C@@H](C)CO)C[C@@H](C)[C@@H](CN(C)C(=O)Nc2c(C)noc2C)OCCCC[C@H](C)O3)cc1 in HIV Env fusion: 26[16.7 µM]
# Value for Cc1ccc(S(=O)(=O)Nc2cccc3c2O[C@H](CN(C)S(=O)(=O)c2ccc(C)cc2)[C@H](C)CN([C@H](C)CO)C3=O)cc1 in HIV Env fusion: 4[16.7 µM]
# Value for COc1ccc(CN2C[C@H](C)[C@@H](OC)CN(C)C(=O)c3ccc(NC(=O)c4nc5ccccc5s4)cc3OC[C@H]2C)cc1 in HIV Env fusion: 16[16.7 µM]
# Value for C[C@@H]1CN([C@H](C)CO)C(=O)c2cc(NC(=O)Nc3cccc4ccccc34)ccc2O[C@@H](C)CCCCO[C@@H]1CN(C)C(=O)c1ccccc1 in HIV Env fusion: -3[16.7 µM]

# Next part
# Each structure is followed by: HIV Env fusion, Yeast UUG start
Cc1ccccc1S(=O)(=O)N[C@H]1CC[C@H](CCn2cc(Cc3ccccc3)nn2)O[C@@H]1CO
    4[16.7 µM], -5
COc1cccc(CNC(=O)C[C@H]2CC[C@@H](NC(=O)C3CC3)[C@@H](CO)O2)c1
    -8[16.7 µM], -7
C[C@H](CO)N1C[C@H](C)[C@@H](CN(C)C(=O)Nc2ccc(C(F)(F)F)cc2)OCc2cn(nn2)CCCC1=O
    -2[16.7 µM], -3
Cc1ccc(-c2cnc3c(c2)C(=O)N([C@@H](C)CO)C[C@@H](C)[C@H](CN(C)C)O3)cc1
    -3[16.7 µM], -11
C[C@@H]1CCCCO[C@@H](CN(C)S(C)(=O)=O)[C@@H](C)CN([C@H](C)CO)C(=O)c2cc(NS(=O)(=O)c3ccccc3)ccc2O1
    -1[16.7 µM], -2
COc1ccc(NC(=O)Nc2ccc3c(c2)C(=O)N([C@@H](C)CO)C[C@H](C)[C@H](CN(C)S(=O)(=O)c2ccc(C)cc2)OCCCC[C@H](C)O3)cc1
    7[16.7 µM], 3
C[C@H](CO)N1C[C@H](C)[C@@H](CN(C)C(=O)C2CCCCC2)Oc2ncc(C#CC3CCCC3)cc2C1=O
    25[16.7 µM], 7
C[C@@H]1CCCCO[C@@H](CN(C)CC2CCCCC2)[C@H](C)CN([C@@H](C)CO)C(=O)c2cc(NS(C)(=O)=O)ccc2O1
    1[16.7 µM], 42
CC(C)C#Cc1cnc2c(c1)C(=O)N([C@H](C)CO)C[C@@H](C)[C@H](CN(C)C(=O)Nc1cccc(F)c1)O2
    5[16.7 µM], 17
C[C@@H]1CCCCO[C@@H](CN(C)S(=O)(=O)c2ccc(F)cc2)[C@@H](C)CN([C@@H](C)CO)C(=O)c2cc(NS(=O)(=O)c3cn(C)cn3)ccc2O1
    -38[16.7 µM], 3
CNC[C@H]1Oc2c(NS(C)(=O)=O)cccc2C(=O)N([C@@H](C)CO)C[C@H]1C
    -22[16.7 µM], 5
C[C@H]1CCCCO[C@H](CN(C)Cc2ccccc2)[C@@H](C)CN([C@@H](C)CO)C(=O)c2cc(NC(=O)Cc3ccccc3)ccc2O1
    13[16.7 µM], 9
COc1cccc(-c2ccc3c(c2)O[C@@H](CN(C)C(=O)c2ccccc2F)[C@H](C)CN([C@@H](C)CO)S3(=O)=O)c1
    11[16.7 µM], -2
CC(C)NC(=O)N[C@@H]1C=C[C@@H](CC(=O)O)O[C@@H]1CO
    10[16.7 µM], -12
COc1cccc(C#Cc2ccc3c(c2)O[C@@H](CN(C)C(C)=O)[C@@H](C)CN([C@@H](C)CO)S3(=O)=O)c1
    40[16.7 µM], 4
CCCNC(=O)C[C@@H]1C[C@H]2c3cc(NS(=O)(=O)c4ccc(F)cc4)ccc3O[C@H]2[C@@H](CO)O1
    -27[16.7 µM], 10
COc1cccc(S(=O)(=O)N[C@H]2CC[C@@H](CC(=O)NCc3ccc(F)cc3)O[C@@H]2CO)c1
    -3[16.7 µM], 4
C[C@H]1CCCCO[C@@H](CN(C)Cc2ccc(C(=O)O)cc2)[C@@H](C)CN([C@@H](C)CO)C(=O)c2cc(NC(=O)Cc3ccccc3)ccc2O1
    1[16.7 µM], 52
CC(C)CC#Cc1ccc2c(c1)O[C@@H](CN(C)C(=O)Cc1ccncc1)[C@@H](C)CN([C@H](C)CO)S2(=O)=O
    19[16.7 µM], -4
Cc1noc(C)c1S(=O)(=O)N(C)C[C@@H]1Oc2ccc(NC(=O)NC3CCCCC3)cc2CC(=O)N([C@H](C)CO)C[C@H]1C
    12[16.7 µM], 10

# Some of the entries so far, as tab-separated lines.
SMILES	HIV Env fusion	Yeast UUG start
Cc1ccc(S(=O)(=O)N(C)C[C@H]2Oc3ccc(NC(=O)Cc4cn(C)c5ccccc45)cc3CC(=O)N([C@@H](C)CO)C[C@H]2C)cc1	16[16.7 µM]	-11
CC(C)CC#Cc1ccc2c(c1)O[C@@H](CN(C)C(=O)Cc1ccncc1)[C@@H](C)CN([C@H](C)CO)S2(=O)=O	19[16.7 µM]	-4

# Continued.
# Each structure is followed by: HIV Env fusion, Yeast UUG start
Cc1noc(C)c1NC(=O)N(C)C[C@H]1OCCCC[C@@H](C)Oc2ccc(NC(=O)C3CCCCC3)cc2C(=O)N([C@H](C)CO)C[C@H]1C
    -15[16.7 µM], 8
C[C@H](CO)N1C[C@H](C)[C@@H](CN(C)Cc2ccc(Cl)c(Cl)c2)Oc2ccc(NS(C)(=O)=O)cc2C1=O
    21[16.7 µM], 20
CCS(=O)(=O)Nc1ccc2c(c1)C(=O)N(C)C[C@@H](OC)[C@H](C)CN(C(=O)C1CCC1)[C@@H](C)CO2
    -1[16.7 µM], 4
CO[C@@H]1CN(C)C(=O)c2cc(NC(=O)c3ccc(F)cc3)ccc2OC[C@H](C)N(C)C[C@H]1C
    -6[16.7 µM], -7
COc1ccc(CN(C)C[C@H]2OCCCC[C@@H](C)Oc3ccc(NC(=O)Nc4cccc5ccccc45)cc3C(=O)N([C@H](C)CO)C[C@H]2C)cc1
    -12[16.7 µM], 12
C[C@@H](NC(=O)C[C@H]1C[C@@H]2c3cc(NC(=O)NC4CCCC4)ccc3O[C@@H]2[C@@H](CO)O1)c1ccccc1
    18[16.7 µM], 7
C[C@H](CO)N1C[C@H](C)[C@@H](CN(C)S(C)(=O)=O)Oc2ccc(NS(=O)(=O)c3ccc(Cl)cc3)cc2C1=O
    -2[16.7 µM], -9

# Screening results: PubChem, Broad Institute

# The list is partial (hit frequency here may not be typical).
